# Screening results as filed in PubChem BioAssay.
# VDR inh – blocks the human vitamin D receptor; 400,000 compounds, 0.93% hits; Potency, µM, without a hit: max response, negative = inhibition, most hits filed as inhibitors; AID 504847; P11473; VDR-SRC2-3 peptide fluorescence polarization, 2 h; active means well fitted inhibition curve with a large enough effect; inconclusive means small, poorly fitted or top-dose-only effect, or another doubt; inactive means no such curve, though single readings can be large or run the other way; further: series mostly up to about 120 µM
# Target sequence (P11473 whole entry, looked up): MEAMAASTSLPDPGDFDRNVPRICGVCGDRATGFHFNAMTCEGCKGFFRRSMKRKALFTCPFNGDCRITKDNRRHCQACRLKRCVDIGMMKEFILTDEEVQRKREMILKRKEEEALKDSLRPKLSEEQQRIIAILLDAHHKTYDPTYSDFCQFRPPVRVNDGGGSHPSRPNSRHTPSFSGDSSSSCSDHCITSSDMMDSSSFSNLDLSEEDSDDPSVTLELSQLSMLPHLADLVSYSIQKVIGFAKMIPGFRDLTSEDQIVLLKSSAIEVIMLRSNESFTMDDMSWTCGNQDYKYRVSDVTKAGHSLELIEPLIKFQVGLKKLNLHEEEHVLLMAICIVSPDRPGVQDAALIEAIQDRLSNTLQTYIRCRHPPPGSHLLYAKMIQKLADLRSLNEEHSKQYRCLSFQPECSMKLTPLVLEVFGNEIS
#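 After 23 nl compound addition and a short centrifugation, plates sat for 2 hours at ambient temperature; polarization of fluorescence then indicated loss of VDR binding to peptide SRC2-3.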
# * hit, by the source's call; ? = inconclusive; & = joins results of further samples. On the % scale 0 is the no-effect control and ±100 the full control effect; potency means the concentration at half of the fitted maximal effect.
# Sample of the layout, two compounds:
SMILES,VDR inh
CCOC(=O)c1nnsc1NC(=O)Nc1ccc(OC)cc1,4%
CCOC(=O)c1sc(/N=C/c2ccc(O)cc2O)cc1C,-9%

# The whole of this part, from the start:
SMILES,VDR inh
CCOC(=O)c1nnsc1NC(=O)Nc1ccc(OC)cc1,4%
CCOC(=O)c1sc(/N=C/c2ccc(O)cc2O)cc1C,-9%
CC(C)(C)C(=O)Cn1c[n+](N)cn1,11%
COc1ccc(C(=O)Nc2nc(-c3ccc([N+](=O)[O-])cc3)c(-c3ccc(OC)cc3)s2)cc1,-13%
Cc1cccc(C(=O)NCC2CCCO2)c1 (stereo not given),-1%
CCc1ccc(C(CC(=O)c2ccc(Cl)cc2)C(=O)O)cc1 (stereo not given),11%
Cc1ccc(OCC(=O)N2c3ccccc3NC(=O)C2(C)C)c([N+](=O)[O-])n1,-11%
Cc1ccc(CN(Cc2ccco2)C(=O)COc2c(C)cc(C)cc2C)cc1,-5%
Cc1sc2ncn(CC(=O)Nc3cccc(C(F)(F)F)c3)c(=O)c2c1S(=O)(=O)N1CCC(C)CC1,-6%
Cc1ccc(C)c(N2CN(Cc3cccnc3)CNC2=S)c1,-8%
Cc1ccc(Sc2ccc(N3CCC(C(=O)Nc4ccc(C)c(F)c4)CC3)nn2)cc1,-4%
COc1cc(C=NNC(=O)c2cccnc2)ccc1OC(=O)c1ccccc1F,-4%
CSc1nc(-c2ccccc2)nc2c1COC(C)(C)C2,2%
CN(C)c1cccc(C(=O)NNC(=O)CN2C(=O)C3CC=CCC3C2=O)c1 (stereo not given),-6%
CCC1CN(C(=O)N2CCC(C(=O)NCc3ccc(OC)cc3OC)CC2)c2cc(C)ccc2O1 (stereo not given),-4%
CCc1nc2ccccc2n1CC1CC1(Cl)Cl (stereo not given),9%
O=C(Nc1nnc(-c2ccc3c(c2)CCCC3)o1)c1ccccc1Cl,3%
COC(=O)C1CCCCN1C(=O)CCc1nnc(CCc2c[nH]c3ccccc23)o1 (stereo not given),16%
CCCCCCOc1ccc(C(=O)O)cc1C#N,-6%
CC(=O)N1CCCc2ccccc21,2%
Cc1cc(C(=O)Nc2cccc(C)c2C)c2c(C)nn(-c3cccc(F)c3)c2n1,6%
CC(=O)c1cccc(NC(=O)N2CCC(NC(=O)C34CC5CC(CC(C5)C3)C4)CC2)c1,-4%
CC1CN(C(=O)c2cc3cc([N+](=O)[O-])ccc3s2)CC(C)O1 (stereo not given),-15%
CC(O)CNc1nc2ccccc2n1CC(=O)NCCc1ccc(Cl)cc1 (stereo not given),-3%
Cc1cc(OCc2cc(C(=O)NCc3csc(C(C)C)n3)no2)cc(C)c1Cl,4%

# Continued.
SMILES,VDR inh
Cc1ccc2nc3c(cc2c1)c(C)nn3-c1ccccc1,9%
COc1ccc(-c2noc(CCC(=O)NCC3CCCO3)n2)cc1OC (stereo not given),5%
COc1ccc(Nc2cc(C(=O)NCCCOC(C)C)c3ccccc3n2)c(OC)c1,10%
c1ccc(-n2nnc(-c3cccnc3)n2)cc1,-5%
COCCn1c(=O)c(-c2cc(F)cc(F)c2)nc2cnc(Oc3ccc(OC)cc3)nc21,7%
O=C(/C=C/c1ccc(F)cc1)N1CCN(S(=O)(=O)/C=C/c2ccccc2)CC1,-1%
CC1CCN(CCNC(=O)C2CCCN(S(=O)(=O)c3cccc4nsnc34)C2)CC1 (stereo not given),-15%
Cc1[nH]nc2c1C(c1ccc3c(c1)OCO3)C(C#N)=C(N)O2 (stereo not given),-22%
CC(C)n1cc(/C=C/c2cc[n+](C)cc2)c2ccccc21,-2%
CNC(=O)c1ccccc1NC(=O)c1cccc(S(=O)(=O)N2CCC(C)CC2)c1,-6%
O=C(NNC(=O)c1cc(-c2ccco2)nc2ccccc12)c1ccccc1,-3%
O=C(/C=C/c1ccco1)NC(=S)Nc1ccccc1O,8%
O=C(OCc1nnc(-c2cccs2)o1)C1=NN(c2ccccc2)C(=O)CC1,-10%
Cc1ccc(S(=O)(=O)N(C)CC(=O)O/N=C(\N)c2ccccn2)cc1,-4%
COc1cccc(-n2cc(C(=O)Nc3cccc(C(F)(F)F)c3)c3ccccc3c2=O)c1,-8%
Cc1ccc(C)c(NC(=S)NCCCN2CCOCC2)c1,?
Cc1ccc(OCC(=O)NNC(=O)CSc2ncnc3sc(C)c(C)c23)cc1,-6%
CC(=O)N1N=C(c2ccc(C)o2)CC1c1ccc(F)cc1 (stereo not given),0%
Cc1ccn2c(=O)nc(SCC(=O)N3N=C(c4cccs4)CC3c3ccc(F)cc3)nc2c1 (stereo not given),7%
CCOc1ccccc1NC(=O)N1CCC(c2nc3ccccc3[nH]2)CC1,12%
COc1ccc(N(C(=O)c2snc(C(N)=O)c2N)C(C(=O)NCc2ccccc2)c2ccc(F)cc2)c(OC)c1 (stereo not given),?
COc1cc(CN2CC(C)CC(C)C2)cc([N+](=O)[O-])c1O (stereo not given),18%
ClC(CCN1CCN(Cc2ccccc2)CC1)c1ccccc1 (stereo not given),-12%
C=CCN1C(=O)/C(=C\C=C2\N(C)c3ccccc3C2(C)C)SC1=S,17%
CCn1c(SCC(=O)OC2CCCCC2)nc2ccccc2c1=O,-13%

# Looked up by structure from the list above (6):
SMILES,VDR inh
COc1ccc(N(C(=O)c2snc(C(N)=O)c2N)C(C(=O)NCc2ccccc2)c2ccc(F)cc2)c(OC)c1 (stereo not given),?
CC1CCN(CCNC(=O)C2CCCN(S(=O)(=O)c3cccc4nsnc34)C2)CC1 (stereo not given),-15%
CNC(=O)c1ccccc1NC(=O)c1cccc(S(=O)(=O)N2CCC(C)CC2)c1,-6%
COc1cc(CN2CC(C)CC(C)C2)cc([N+](=O)[O-])c1O (stereo not given),18%
c1ccc(-n2nnc(-c3cccnc3)n2)cc1,-5%
ClC(CCN1CCN(Cc2ccccc2)CC1)c1ccccc1 (stereo not given),-12%

# (next part)
SMILES,VDR inh
O=C(Nc1ccc(S(=O)(=O)N2CCOCC2)cc1)C1CCN(S(=O)(=O)c2ccccc2)CC1,-6%
COc1cccc(NC(=O)c2sc3nc(N4CCOCC4)c4c(c3c2N)CC(C)(C)OC4)c1,-5%
O=c1c2c(nc3n1CCCCC3)-c1ccccc1CC21CCCCC1,-5%
NC(=O)NC(=O)CN1c2cccc3cccc(c23)S1(=O)=O,6%
COc1ccccc1OC(C)C(=O)N1CCC(Cc2ccccc2)CC1 (stereo not given),-2%
Cc1ccc2ncnc(NCc3ccco3)c2c1,-5%
CS(=O)(=O)N1CCN(c2ccc(C(=O)N3CCOCC3)cc2[N+](=O)[O-])CC1,0%
Cc1ccc(S(=O)(=O)N2CCC(C(=O)Nc3ccc4c(c3)COC4=O)CC2)cc1,0%
C=CCn1c(CNC(=O)c2ccccc2F)nnc1SCC(=O)NC(C)c1ccccc1 (stereo not given),-1%
Cc1ccccc1NC(=O)/C(C#N)=C/c1ccc(Cl)cc1Cl,?
O=C(CN(C(=O)c1csnn1)c1ccccc1Cl)NCCc1ccccc1,-1%
O=C(O)CCCC(=O)N1N=C(c2ccco2)CC1c1ccco1 (stereo not given),-16%
COc1ccc(CNCc2ccc3c(c2)n(C)c(=O)n3C)cc1,13%
Cc1cc(C)nc(S/C=C/C(=O)c2ccccc2F)n1,?
N#Cc1c(NC(=O)CSc2nnnn2C2CCCC2)sc2c1CCCC2,13%
COc1ccc(-c2cc(=O)c3c(O)cc(O)c(-c4cc(-c5cc(=O)c6c(O)cc(O)cc6o5)ccc4OC)c3o2)cc1,7%
COc1ccc(CCNS(=O)(=O)c2ccccc2[N+](=O)[O-])cc1OC,2%
O=C(Nc1ccc(Cl)c(Cl)c1)c1ccncc1,-8%
O=C(O)C1CC=CCC1C(=O)Nc1ccc(S(=O)(=O)N2CCCc3ccccc32)cc1 (stereo not given),10%
O=c1c2c([nH]c3ccccc13)CCCC2,13%
O=C(CNC(=O)c1cccc(F)c1)N/N=C/c1cccs1,5%
CN(C)S(=O)(=O)c1ccc2c(c1)nc(CCC(=O)NCCc1ccc(Cl)cc1)n2C,-13%
Clc1cccc2c1CCN(Cc1nc(-c3cnccn3)no1)C2,-16%
C=CCN(C(=O)CSc1nc2c(sc3ccccc32)c(=O)n1CCN(CC)CC)c1ccccc1,?
Cc1cccc(-n2c(=O)c3c(c4cc(C)ccc4n3C)n(CC(=O)Nc3ccc(C)c(C)c3)c2=O)c1,-3%

# Other entries:
SMILES,VDR inh
O=C(O)c1ccc(/C=N/NC(=O)c2cc3ccccc3cc2O)cc1,-7%
CCc1ccc(C(=O)NC(CCSC)C(=O)O)cc1 (stereo not given),-8%
COc1ccc(-c2ocnc2C(=O)N2CCN(Cc3cccnc3)CC2)cc1,5%
O=C(N/N=C/c1cc(Br)c(O)c(Br)c1)c1cccc(C(F)(F)F)c1,-1%
CCN(CC)c1ccc(/C=N/NC(=O)c2ccco2)c(O)c1,-18%
CCCNC(=O)N1CCN(S(C)(=O)=O)CC1,4%
O=C(CCN1C(=O)/C(=C\c2cccc(Br)c2)SC1=S)NCCCN1CCOCC1,-12%
O=C(Nc1ccccn1)c1cc(-n2cnnc2)ccc1Cl,8%
CN(C)Cc1nc(-c2cn(C)c3ccccc23)no1,13%
O=C(CSc1ccc2nnc(-c3ccccc3)n2n1)NCc1ccco1,-3%
O=C(O)c1ccc(Cn2ccc3ccccc32)o1,8%
CNC(=O)c1ccsc1NC(=O)c1ccc2c(c1)CCCC2,-4%
Cc1ccc(NC(=O)CN(C)C(=O)COc2cc(F)ccc2[N+](=O)[O-])cc1,-12%
CC(=O)Nc1ccc(SCC(=O)c2cc(C)n(CC(F)(F)F)c2C)cc1,-5%
COc1ccc(CCNC(=O)CCS(=O)(=O)c2ccc3c(c2)oc(=O)n3C)cc1OC,0%&-4%
COc1ccc(S(=O)(=O)Nc2cc(Sc3ncn[nH]3)c(O)cc2C)cc1,-5%
Cc1ccc(S(=O)(=O)CC(c2ccccc2)N2CCOCC2)cc1 (stereo not given),-13%
O=C(COc1ccccc1)Nc1nnc(C23CC4CC(CC(C4)C2)C3)s1,7%
CC(=O)N1c2ccccc2C(C)(c2ccccc2)CC1(C)C (stereo not given),-9%
O=C(c1ccccc1)c1nccn1-c1ccc(Cl)nn1,-3%
Cc1cc(NC(=O)CSc2nc3c([nH]c4ccccc43)c(=O)n2-c2ccccc2F)no1,-3%&-1%
Cc1ccccc1NC(=S)N1CCN(C(=O)c2ccco2)CC1,0%
COc1ccc(Cl)cc1Nc1nc(-c2sc(NC(=O)c3ccco3)nc2C)cs1,-4%
CCOC(=O)N1CCN(C(=O)CNC(=O)c2ccc(Cl)cc2)CC1,-15%
C=CC(=O)Nc1ccc(CN2C(=O)N(c3c(Cl)c(OC)cc(OC)c3Cl)Cc3cnc(NCCCCN(CC)CC)nc32)cc1,3%

# Continued.
SMILES,VDR inh
CCCCc1noc2c1/C(=N\O)CC(c1ccccc1)C2 (stereo not given),-2%
COc1cnc(-c2ccccn2)nc1N(C)C,-1%
CCCCOP(=O)(OCCCC)C(Nc1ccc(C(=O)OCC)cc1)c1ccncc1 (stereo not given),10%
CC(C)CNC(=O)c1cccc(NC(=O)CSc2ccc(Cl)cc2)c1,3%
c1ccc(COc2ncnc3c2ncn3CCCNCC2CCCO2)cc1 (stereo not given),-21%
Cc1sc(NC(=O)CN2CCOCC2)nc1-c1ccc2c(c1)CCN2S(=O)(=O)c1ccccc1,9%
COc1cccc(C#Cc2c(C=O)n(C)c3ccccc23)c1,-3%
CCOc1ccc(CNC(=O)Cc2ccc(NC(=O)N3CCSc4ncccc43)cc2)cc1,7%
C/C(=N/NC(=O)CNC(=O)c1ccccn1)c1cccc([N+](=O)[O-])c1,8%
Cc1ccc(NC(=O)c2cccc(OCc3c(C)noc3C)c2)c(C)c1,-1%
CCOC(=O)C(C)Sc1nnc(NC(=O)c2ccc3c(c2)OCO3)s1 (stereo not given),0%
O=S(=O)(/N=C(/Nc1ccccc1)c1ccccc1)c1cccs1,2%
N#Cc1nc(Cc2cccc3ccccc23)oc1NCCCN1CCOCC1,8%
O=C(NCc1ccncc1)C1CCN(S(=O)(=O)c2ccccc2)CC1,-14%
COc1ccc(C(=O)Nc2ccc(C(=O)Nc3cccnc3)cc2)cc1,-23%
COc1cccc(CN(C)C(=O)c2ccc3nccnc3c2)c1,-20%
O=c1c2sc3ccccc3c2n(Cc2ccc(F)cc2Cl)c(=O)n1Cc1ccccc1,8%
COc1ccc(C(CNC(=O)c2ccco2)N2CCCCC2)cc1 (stereo not given),-14%
CC(C)C(=O)Nc1c(-c2ccc(Cl)cc2)c(=O)c2ccccc2n1C,8%
CCOC(=O)Cc1cc(=O)c2c(=O)n(-c3ccccc3)[nH]c2[nH]1,13%
Cc1ccc(S(=O)(=O)N2CCCC2C(=O)NCc2ccncc2)cc1 (stereo not given),2%
CCOC(=O)c1ccc(NC(=O)Cn2ncc(Cl)c(Cl)c2=O)cc1,-12%
O=C(NCc1cccc(Br)c1)C1CCCCN1S(=O)(=O)c1ccc(F)cc1 (stereo not given),4%
Cc1ccc2c(CC(=O)N(Cc3cccc(Cl)c3)C3CCS(=O)(=O)C3)coc2c1 (stereo not given),7%
COC(=O)c1c[nH]n2c(=O)c(Cl)c(C)nc12,-8%

# Filtered by structure: the compounds so far with bromine.
SMILES,VDR inh
O=C(N/N=C/c1cc(Br)c(O)c(Br)c1)c1cccc(C(F)(F)F)c1,-1%
O=C(CCN1C(=O)/C(=C\c2cccc(Br)c2)SC1=S)NCCCN1CCOCC1,-12%
O=C(NCc1cccc(Br)c1)C1CCCCN1S(=O)(=O)c1ccc(F)cc1 (stereo not given),4%

# (cont.)
SMILES,VDR inh
CO/N=C/c1ccc(Oc2ccc(C)cc2)nc1,9%
COc1ccc(/C=C/C(=O)c2nc3ccccc3n2CC(=O)c2ccc(OC)cc2)cc1,13%
Cc1nc2c(ncn2-c2ccccc2)c(=O)n1NC(=O)CN1CCOCC1,0%
O=C(NC(c1ccccc1)C(Cl)(Cl)Cl)c1ccccc1 (stereo not given),-15%
CSc1nc(Cl)cc(=O)[nH]1,-3%
Cc1sc2ncn(CC(=O)N3CCOCC3)c(=O)c2c1-c1ccccc1,-4%

# The list is partial; count on the stated rates, not on these rows.
